Compound activity (PubChem)
Menin-MLL FL inh: displaces fluorescein MLL peptide from human menin; Fluorescence polarization, fluorescein-MLL peptide displacement from menin; AID 1766; FP activity change, % at 61.4 µM; 290,000 tested, under 10 active; inconclusive = falling polarisation curve, or a change in total fluorescence; inactive = total fluorescence flat and polarisation flat or rising; no compound was filed as active; the % refers to the polarisation; negative = inhibition;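 note: % of control where 0% means no effect; inhibitors lower the polarisation; unlabelled MLL peptide was the positive control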
ClpP mod: qHTS Assay for Activators of ClpP. purified B. subtilis ClpP, FRET peptide cleavage, 20 min. Potency, µM (highest dose often 57.5 µM), for inactives: at the highest dose activity change, negative = active. hit rate 1.9% among 340,000. AID 651965, 2013; active = well fitted falling curve with a large enough effect; inconclusive = small, poorly fitted or top-dose-only effect; inactive = no such curve, though single readings can be large or run the other way; note: potency is the fitted concentration of half-maximal effect; the source files actives as falling curves though it sought activators and does not explain the sign; nearly all actives have a fitted effect of over 65% in size; many hits overshoot -100%
Target sequence (P80244 whole entry, looked up): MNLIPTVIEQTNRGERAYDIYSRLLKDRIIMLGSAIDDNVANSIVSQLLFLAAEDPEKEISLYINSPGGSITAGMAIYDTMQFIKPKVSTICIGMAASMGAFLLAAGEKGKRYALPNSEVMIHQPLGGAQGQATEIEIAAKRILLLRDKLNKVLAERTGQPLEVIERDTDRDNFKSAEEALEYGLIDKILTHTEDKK
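FRET quenching reversal measured ClpP activation: 10 microg/mL B. subtilis ClpP at pH 8 with the FRET-FV decapeptide, read at 430 nm after 320 nm excitation. The 20-min minus 0-min signal was scaled between DMSO/no-enzyme wells and ADEP (5.8 microM final).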
TRPV1 potentiator: potentiators of human vanilloid receptor 1 (TRPV1) | hit rate 0.02% among 320,000 | AID 540277 | potentiation, % at 8.33 µM | TRPV1-expressing cells, Fluo-8 calcium influx, capsaicin EC20 potentiation; host cell line not named in the record; control for the full effect not named in the record | Q8NER1; active means potentiation above 80%; inconclusive means 30% to 80%; inactive means below 30%; note: 0% is about no effect
Target sequence (Q8NER1 whole entry, looked up): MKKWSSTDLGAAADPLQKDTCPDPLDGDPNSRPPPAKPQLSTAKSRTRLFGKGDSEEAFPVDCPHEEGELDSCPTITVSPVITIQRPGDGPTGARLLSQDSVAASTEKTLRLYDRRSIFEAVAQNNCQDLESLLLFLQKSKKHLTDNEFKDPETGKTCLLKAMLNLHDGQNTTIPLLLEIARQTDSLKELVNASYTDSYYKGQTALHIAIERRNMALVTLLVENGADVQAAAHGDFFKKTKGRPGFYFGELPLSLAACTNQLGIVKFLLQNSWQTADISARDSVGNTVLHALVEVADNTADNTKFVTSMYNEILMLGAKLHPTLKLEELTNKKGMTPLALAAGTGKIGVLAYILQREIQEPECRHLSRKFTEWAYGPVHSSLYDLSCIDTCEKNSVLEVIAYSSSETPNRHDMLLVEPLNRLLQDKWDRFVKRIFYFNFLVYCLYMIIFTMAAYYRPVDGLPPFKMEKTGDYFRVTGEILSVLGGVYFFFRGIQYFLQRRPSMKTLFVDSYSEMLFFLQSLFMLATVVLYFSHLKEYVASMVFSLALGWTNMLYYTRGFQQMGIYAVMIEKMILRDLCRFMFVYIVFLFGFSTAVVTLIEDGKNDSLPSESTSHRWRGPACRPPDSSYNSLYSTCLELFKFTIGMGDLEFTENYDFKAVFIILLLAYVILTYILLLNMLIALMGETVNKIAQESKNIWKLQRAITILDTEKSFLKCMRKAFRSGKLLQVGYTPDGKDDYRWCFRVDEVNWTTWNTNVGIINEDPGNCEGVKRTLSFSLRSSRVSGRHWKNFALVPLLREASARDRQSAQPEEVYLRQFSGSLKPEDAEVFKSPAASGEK
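Fluo-8 calcium influx in TRPV1-expressing cells, kinetic read (ex 480/em 520 nm). Compound added and read 3 min for agonist activity, followed by capsaicin at EC20 final and 2 min further read for enhancement.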
gsp ag: activates gsp, the McCune-Albright syndrome mutation; gsp mutant cells, cAMP HTRF, 30 min; control for the full effect not named in the record; Potency, µM (top dose mostly 76.9 µM), without a hit: at the highest dose activation (cAMP increase), most hits filed as activators; hit rate 0.13% among 340,000; AID 624287; active = well fitted activation curve with a large enough effect; inconclusive = small, poorly fitted or top-dose-only effect, or another doubt; inactive = no such curve, though single readings can be large or run the other way; cell line not stated here;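 note: phosphodiesterase inhibitor Ro 20-1724 added with compounds to block cAMP breakdown; potency is the fitted concentration of half-maximal effect; nearly all actives have a fitted effect of over 60% in size; about a fifth of the inactives were tested at one dose only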
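Cells in DMEM/10% FBS with G418 were pretreated with compounds in DMSO plus […] (300 uM stock) for 30 min at 37C. cAMP was measured by HTRF (cAMP-d2 plus anti-cAMP antibody-K) after 30 min at room temperature.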
gsp antagonist: antagonizes gsp, the McCune-Albright syndrome mutation; Potency, µM (doses to about 76.9 µM), inactives show at the top dose activity change, negative = inhibition, hits mostly inhibitors; hit rate 0.4% among 340,000; gsp-mutant cells, cAMP HTRF, 30 min; control for the full effect not named in the record; active = falling curve of any shape with a large fitted effect; inconclusive = falling curve, mostly with a smaller effect; inactive = flat or rising curve; cell line not stated here;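 note: intracellular cAMP measured with PDE inhibitor Ro 20-1724 present during compound exposure; potency is the fitted concentration of half-maximal effect; % is set by controls: 0 for no effect and ±100 for the full control effect; nearly all actives have a fitted effect of over 65% in size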
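Measurement of cellular cAMP by homogeneous time-resolved fluorescence following a 30 min compound exposure at 37C. The PDE inhibitor […] was present throughout; the assay buffer was DPBS with 0.05% BSA and 0.005% Tween 20.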
TRPML1 blocker: human mucolipin-1 channel inhibition. Q9GZU1. TRPML1-inducible cells, Ca2+ dye fluorescence, FDSS; hits give low values; inhibition of EC80 agonist-evoked calcium signal. activity change, negative = inhibition, % (test concentration not listed). hit rate 0.02% among 390,000. AID 624415; in the data active means activity change below about -50%; inconclusive means about -30% to -50%; inactive means above about -30%;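 note: stimulus is agonist 54-4 at its EC80 concentration; % is set by controls: 0 for no effect and ±100 for the full control effect; compound concentration not given in the record; the text of the record puts the active cut at -80%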
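Calcium fluorescence in TRPML1-DL cells induced overnight with Tet: a 110 s read after compound pin addition, then a 110 s antagonist read after challenge with 54-4 at 4 uM final (EC80).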
Sfp PPTase inh: inhibitors of Bacillus subtilis Sfp phosphopantetheinyl transferase; Q9F4F7; Biochemical Sfp PPTase activity, qHTS; Potency, µM, inactives show max response, negative = inhibition, hits mostly inhibitors; hit rate 3.5% among 310,000; AID 1490; active = well fitted inhibition curve with a large enough effect; inconclusive = small, poorly fitted or top-dose-only effect, or another doubt; inactive = no such curve, though single readings can be large or run the other way;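 note: the enzyme is Sfp with the accession as filed and its product quenches rhodamine fluorescence; potency is the fitted concentration of half-maximal effect; 0% = enzyme reaction without inhibitor and -100% = no enzyme wells; top concentration of the series not given in the record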
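Sfp 15 nM + cpd, 15 min RT; start w/ rhodamine-CoA 5 uM, BHQ-2-YbbR 12.5 uM (final); 50 mM Hepes pH 7.6, 10 mM MgCl2, 0.01% NP-40, 0.01% BSA; read 525/598 nm at 0 and 30 min.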
* = called active by the depositor; ? = inconclusive; . = no result given; & = joins results of further samples; [ ] = remark or other dose. An unsorted share of the library; 4.9% or so of the library scored in one or more.

SMILES	Menin-MLL FL inh	ClpP mod	TRPV1 potentiator	gsp ag	gsp antagonist	TRPML1 blocker	Sfp PPTase inh
COc1ccc(OC)c(S(=O)(=O)NCC(c2ccco2)N2CCc3ccccc3C2)c1 (stereo not given)	.	-2.5%	4	-98%[inhibitor]	-2%	-6	.
CN[C@H]1CCc2cc(OC)c(OC)c(OC)c2-c2ccc(OC)c(=O)cc21	.	-1.1%	.	.	4%	1	.
O=C(C1=C[C@H](c2coc3ccccc3c2=O)C[C@H](OCc2ccc(CO)cc2)O1)N1CCN(Cc2ccc3c(c2)OCO3)CC1	-2.7	-4.2%	1	3%	-13%	-1	-3%
O=C(NCc1cccc(Cl)c1)c1cccnc1	0.1	0.1%	-3	-16%	7%	9	-6%
Cc1cc(C)c(C(=O)OCC(=O)Nc2cccc(S(=O)(=O)N3CCCCC3)c2)c(C)c1	.	0.6%	9	-14%	-10%	-2	.
CCCS(=O)(=O)N1CCN(Cc2c[nH]c3ccccc23)CC1	-0.8	.	2	-45%[inhibitor]	5%	26	-13%
O=C(CCCN1CCOC(c2ccccc2)C1)c1ccc(F)cc1 (stereo not given)	3.2	0.0%	-16	-17%	5%	21	-4%
CCc1nnc(NC(=O)CCC(=O)N2CCN(S(=O)(=O)c3cc(Cl)ccc3OC)CC2)s1	.	.	-1	16%	0%	-10	10%
COC(=O)c1ccc2c(=O)n(Cc3ccc(C(=O)NCCCN4CCC(C)CC4)cc3)c(=S)[nH]c2c1	-2.8	.	11	3%	-19%	-5	-7%
COc1ccc(NC(=O)COc2coc(CN3c4ccccc4CC3C)cc2=O)cc1 (stereo not given)	.	0.5%	-3	6%[15.4 µM]	6%	11	.
CC(C)CC(=O)NC(Nc1ccc([N+](=O)[O-])cc1)C(Cl)(Cl)Cl (stereo not given)	1.4	1.0%	-15	0%[15.4 µM]	-14%	0	0%
Cc1ccc(S(=O)(=O)NN=C(c2ccccc2)c2cccs2)cc1	.	0.6%	.	?	.	-11	.
COc1ccc(CN2CCNC(=O)C2CC(=O)NCCCn2nnc3ccccc32)cc1C (stereo not given)	.	-1.1%	-38	-47%[inhibitor]	5%	19	9%
COc1ccc2c(c1)CCc1c(C(=O)Nc3c(C)nn(Cc4ccccc4)c3C)noc1-2	-0.8	?	13	-7%	?	-11&-7	12%
Cc1ccc(Cn2ncc3c(N4CCN(CCc5ccccc5)CC4)ncnc32)cc1	-0.9	-27%	2	-1%[15.4 µM]	2%	6	17%
CC(C)n1nnnc1SCC(=O)Nc1cccc(F)c1	-7.7	.	-8	-31%	-3%	-8	19%
COCC(C)NCC(=O)NC(C)CCc1ccccc1 (stereo not given)	-0.5	-3.6%	5	0%	-11%	4	-16%
Cc1cc(C(=O)CN2C(=O)NC(C)(c3cccc(Br)c3)C2=O)c(C)n1Cc1ccco1 (stereo not given)	5.5	-8.2%	-8	0%	-6%	-3	-3%
Cc1ccc(/C(=N\S(=O)(=O)c2ccc(Br)cc2)Nc2ccccc2C)cc1	-3.6	.	0	-29%	2%	0	7%
NC1=C(Br)C(=O)c2ncccc2C1=O	.	-3.0%	.	?	-15%	5	.
CCCCCC1CC(CC(=O)Nc2ccc([N+](=O)[O-])cc2)C(=O)O1 (stereo not given)	2.0	2.9%	-3	-30%	-24%	-6	-3%
CCOc1[nH]c(/N=C/c2ccco2)c(C#N)c1C#N	?	-1.4%&-4.6%	-10	17%	-8%	0	45µM*
CCCCON1C(=O)c2cccc3cccc(c23)C1=O	-0.7	4.5%	-7	-68%[inhibitor]	0%	.	7%
Cc1c(/C=N\NC(=O)C2COc3ccc(C(C)(C)C)cc3O2)c2ccccc2n1C (stereo not given)	0.3	-9.3%	-41	-35%[inhibitor]	-2%	17	10%
COc1ccc2cc(CN(C(=O)Nc3ccccc3)C3CCCC3)c(=O)[nH]c2c1	0.1	-25%	0	-7%	-1%	4	-10%
O=C1N(Cc2ccc(F)cc2Cl)c2ccccc2C12OCCCO2	4.2	-10%	5	-56%[inhibitor]	-14%	-8	-17%
S=C(Nc1ccccn1)c1ccccn1	3.5&1.0	-0.9%	-12&3	5%	9%	-15	2.8µM*
OC(c1ccccc1)(c1ccc(F)cc1)C(c1ccccc1)N1CCOCC1 (stereo not given)	0.5	0.7%	-20	-47%[inhibitor]	-14%	-10	-5%
CCOC(=O)c1cc(CC)sc1NC(=O)c1ccc2c(c1)OCCO2	0.5	25µM*	3	-38%[inhibitor]	?	-4	?
COC(=O)CSc1cc(C(F)(F)F)nc(-c2ccccn2)n1	3.4	1.0%	10	-9%	-5%	-1	23%
O=C(NNc1nc2cc3c(cc2s1)OCCO3)c1ccc(F)cc1	1.1	0.3%	0	-2%	4%	3	56µM*
CCc1cc(=O)oc2cc(OCC(=O)NCCCn3ccnc3)ccc12	1.1	4.3%	?	0%	9%	3	7%
O=S(Cc1ccc(Br)cc1)Cc1nnc(SCc2ccc(Cl)cc2)n1-c1ccccc1 (stereo not given)	7.6	1.4%	7	-17%	-24%	0	10%
CC(=O)NC12CC3CC(C1)CC(C(=O)OCC(=O)c1cc(C)n(C)c1C)(C3)C2	.	-0.7%	.	6%	1%	9	.
CC12CCC(C(=O)N(c3ccccc3Cl)C1=O)C2(C)C (stereo not given)	2.1	.	4	2%	13%	2	18%
NC(=O)NC(CC(=O)OCC(=O)NC(=O)NCc1ccco1)c1ccc(Cl)cc1 (stereo not given)	?	-1.6%	2	6%	-18%	2	-11%
CN(CC(=O)Nc1ccc(Cl)cc1F)C1=NS(=O)(=O)c2ccccc21	.	1.9%	.	-6%[15.4 µM]	6%	-2	.
COc1ccc(C)cc1NC(=O)c1ccc(NS(=O)(=O)c2c(C)noc2C)cc1	-2.0	-0.7%	-2	?	?	3&16	31%[activator]
Cc1ccc(SC(c2ccc(C)cc2)C(Cn2cncn2)C(=O)c2ccccc2)cc1 (stereo not given)	1.4	-0.4%	-2	?	-14%	62	12%
Cc1cccc(NC(=O)Cn2c(/C=C/c3ccccc3)nc3ccccc32)c1	3.9	32µM*	-4	26%	2%	40	?
Cc1cccc(C2NS(=O)(=O)N=C2N)c1 (stereo not given)	0.4	-3.3%	10	1%	1%	25	5%
CC(C(=O)NC1CCCC1)N1CCN(Cc2ccccc2)CC1 (stereo not given)	0.5	.	-14	-16%	9%	4	12%
Cn1c(Cn2c(=O)sc3ccccc32)nnc1SCC(=O)NC1CCCCC1	2.5	-2.7%	6	-41%[inhibitor]	5%	5	14%
CCOc1cc2[nH]c(=S)n(CC3CCCO3)c(=O)c2cc1OCC (stereo not given)	2.1	-1.9%	-11	15%	-1%	3	-4%
Cn1nnc2cc(C(=O)N3CCN(c4ccccc4)CC3)ccc21	7.7	1.0%	10	8%	13%	7	0%
O=C(OCC1OC(n2ccc(=O)[nH]c2=O)C2OC12)c1ccccc1 (stereo not given)	.	.	.	-1%	7%	-3	.
CN1CCN(c2ccccc2NC(=O)c2cc3c(s2)-c2ccccc2OC3)CC1	-0.1	-4.0%	-19	?	-7%	12	79µM*
O=C(CCC(=O)Nc1ccc(F)cc1)N/N=C/c1ccccc1O	-3.7	.	-3	-7%[15.4 µM]	9%	-30	20%
Cc1c(NC(=O)C(C)OC(=O)c2cccc([N+](=O)[O-])c2)c(=O)n(-c2ccccc2)n1C (stereo not given)	-2.3	.	-9	-1%[15.4 µM]	2%	5	20%
COc1ccc(NC(=O)CCOc2ccccc2C)cc1S(=O)(=O)N1CCCCC1	.	.	12	-16%[15.4 µM]	-25%	13	.
CN(c1ccccc1)c1nc(N2CCCC2)nc(-n2ccnc2)n1	0.9	-0.5%	-11	8%	-24%	1	-13%
CCC(=O)c1ccc(OCC(=O)OCC(=O)N2CCN(c3ccc(OC)cc3)CC2)cc1	.	-3.4%	4	6%	-8%	-1	.
COC(=O)c1c(NC(=O)CSc2nnnn2-c2ccccc2)sc2c1CCC(C(C)(C)C)C2 (stereo not given)	0.2	-3.0%	-39	-37%[inhibitor]	5%	-6	9%
COc1ccc(S(=O)(=O)N2CCN3CCCC3C2)cc1 (stereo not given)	-0.8	.	16	-51%[inhibitor]	9%	5	27%
O=[N+]([O-])c1cc(Cl)ccc1N1CCN(c2cccc(C(F)(F)F)c2)CC1	-2.7	?	-1	-11%[15.4 µM]	3%	31	?
Cc1cc(C(=O)OCC(=O)N2C(C)CCCC2C)c2ccccc2n1 (stereo not given)	.	-1.6%	.	-6%[15.4 µM]	-2%	-17	.
CN(C)S(=O)(=O)c1ccc(NC(=O)COc2ncnc3c2cnn3-c2ccccc2)cc1	9.3	-10.0%	-3	-9%	-2%	-10	12%
c1ccc(CNC2=NCCC2)nc1	3.0	-1.4%	-14	-37%[inhibitor]	1%	38	-4%
COc1ccc(CCNC(=S)N2CCN(S(=O)(=O)c3ccccc3)CC2)cc1	.	-2.0%	-8	-40%[inhibitor]	-19%	23	.
CCN(Cc1ccccc1)S(=O)(=O)c1ccc(C(=O)N2CCN(c3nc4ccccc4s3)CC2)cc1	0.6	-2.9%	11	-11%	-5%	2	1%
Cc1ccc2[nH]c(=O)c(CN(CCO)Cc3nnnn3CCc3ccccc3)cc2c1	2.6	?	1	1%	-8%	8	3%
NC(=O)c1cc2c(s1)-c1cc(Cl)ccc1SC2	3.8	-18%	-2	-26%	-6%	10	0%
COc1cc(NC(=O)c2ccccc2)ccc1NC(=O)c1cc2ccccc2o1	1.1	?	0	3%[15.4 µM]	1%	-8&-4	-10%

2 successive records already listed, for reference:
SMILES	Menin-MLL FL inh	ClpP mod	TRPV1 potentiator	gsp ag	gsp antagonist	TRPML1 blocker	Sfp PPTase inh
Cc1cccc(C2NS(=O)(=O)N=C2N)c1 (stereo not given)	0.4	-3.3%	10	1%	1%	25	5%
CC(C(=O)NC1CCCC1)N1CCN(Cc2ccccc2)CC1 (stereo not given)	0.5	.	-14	-16%	9%	4	12%
